TRPML1 agonist – activates the human TRPML1 channel. TRPML1-expressing cells, Ca2+ dye fluorescence, FDSS; host cell line not named in the record; reference of the full effect not given here. activation, % (test concentration not listed). Q9GZU1. AID 624414. 410,000 tested, 0.12% active; in the data active = activation above about 50%; inconclusive = about 30% to 50%; inactive = below about 30%; note: 0% is about no effect; the text of the record puts the active cut at 80%
Target sequence (Q9GZU1 whole entry, looked up): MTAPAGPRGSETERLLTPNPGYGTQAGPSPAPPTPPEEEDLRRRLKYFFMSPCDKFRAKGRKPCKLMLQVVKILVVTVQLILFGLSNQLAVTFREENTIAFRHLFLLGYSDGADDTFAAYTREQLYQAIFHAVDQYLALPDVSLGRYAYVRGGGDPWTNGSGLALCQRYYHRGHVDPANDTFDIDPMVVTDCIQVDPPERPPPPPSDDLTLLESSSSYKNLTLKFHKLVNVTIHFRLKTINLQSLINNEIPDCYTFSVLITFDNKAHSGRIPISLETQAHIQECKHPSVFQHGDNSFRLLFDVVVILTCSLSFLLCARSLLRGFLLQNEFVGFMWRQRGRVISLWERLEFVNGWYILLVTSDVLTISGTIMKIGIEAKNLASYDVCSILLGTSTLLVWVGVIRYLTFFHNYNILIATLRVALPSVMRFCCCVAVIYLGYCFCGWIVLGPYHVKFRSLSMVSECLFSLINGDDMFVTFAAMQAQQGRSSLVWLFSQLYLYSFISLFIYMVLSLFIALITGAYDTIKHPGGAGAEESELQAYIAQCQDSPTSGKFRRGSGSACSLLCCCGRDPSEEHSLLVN
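Tetracycline-induced TRPML1-DL cells are seeded and incubated overnight before loading with a no-wash Ca2+ dye and quencher. Agonist activity is taken from the 110 s fluorescence read following compound pin-transfer on an FDSS, before EC80 54-4 challenge.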
CtBP-E1A inh – CtBP/E1A binding inhibition; 340,000 tested, 0.49% active; AlphaScreen GST-E1A/His-CtBP binding, 1536-well; active compounds read low; control for the full effect not named in the record; AID 651724; activity change, % (no concentration beside the values); in the data active means activity change below about -65%; inconclusive means about -30% to -65%; inactive means above about -30%; note: % is set by controls: 0 for no effect and ±100 for the full control effect
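Protein mix (5X: 125 nM each GST-E1A, His-CtBP) was incubated with pinned compound 2 h at 37 deg C in dark, in 50 mM Tris pH 8.0 buffer with 300 mM NaCl. Glutathione donor and nickel acceptor beads followed; AlphaScreen signal read after 1 h.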
D2 agonist – activates the human D2 dopamine receptor; DiscoveRx PathHunter D2 beta-arrestin, luminescence, 90 min; 100% = 57 uM dopamine signal; activation, % (no concentration beside the values); 360,000 tested, 0.084% active; AID 624465; in the data active = activation above about 40%; inconclusive = about 15% to 40%; inactive = below about 15%; note: compound concentration not given in the record; the text of the record calls up to 30% inactive
Target sequence (P14416 whole entry, looked up): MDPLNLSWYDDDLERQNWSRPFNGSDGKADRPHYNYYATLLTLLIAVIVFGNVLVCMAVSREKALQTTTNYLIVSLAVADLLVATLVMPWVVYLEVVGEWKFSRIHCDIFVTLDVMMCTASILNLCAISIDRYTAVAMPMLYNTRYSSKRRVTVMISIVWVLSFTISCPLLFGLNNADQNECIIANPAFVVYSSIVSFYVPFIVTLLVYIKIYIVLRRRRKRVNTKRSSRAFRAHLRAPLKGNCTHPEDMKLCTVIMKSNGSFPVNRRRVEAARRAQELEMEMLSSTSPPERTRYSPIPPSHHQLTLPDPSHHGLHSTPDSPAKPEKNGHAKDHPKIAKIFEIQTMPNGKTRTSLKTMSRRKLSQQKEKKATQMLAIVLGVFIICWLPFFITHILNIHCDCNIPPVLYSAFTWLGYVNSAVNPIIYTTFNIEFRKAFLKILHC
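DiscoveRx PathHunter D2 beta-arrestin cells (2,100/well) attached overnight, then compound-stimulated 90 min at 37 C in HBSS/10 mM HEPES/0.1% Tween-20 buffer; beta-galactosidase complementation read by luminescence after 1 h at ambient temperature. Dopamine 57 uM final (EC100) as control.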
TRPML1 inh – human mucolipin-1 channel inhibition; TRPML1-inducible cells, Ca2+ dye fluorescence, FDSS; active compounds read low; inhibition of EC80 agonist-evoked calcium signal; activity change, negative = inhibition, % (test concentration not listed); Q9GZU1; AID 624415; 390,000 tested, 0.02% active; in the data active means activity change below about -50%; inconclusive means about -30% to -50%; inactive means above about -30%;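 note: stimulus is agonist 54-4 at its EC80 concentration; % is set by controls: 0 for no effect and ±100 for the full control effect; compound concentration not given in the record; the text of the record puts the active cut at -80%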
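Tet-induced TRPML1-DL cells loaded with Ca8 no-wash calcium dye were read kinetically on FDSS. Compound addition was followed by EC80 agonist 54-4 (4 uM final); inhibition was read over 110 s.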
Six1-Eya2 inh – inhibitors of human Six1/Eya2 interaction. activity change, % (test concentration not listed). AID 651725. Q15475+O00167. AlphaScreen GST-Six1/His-Eya2 binding, biochemical; active compounds read low; control for the full effect not named in the record. 360,000 tested, 0.56% active; in the data active = activity change below about -65%; inconclusive = about -30% to -65%; inactive = above about -30%; note: % is set by controls: 0 for no effect and ±100 for the full control effect
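GST-Six1 + His-Eya2 (5X stock: 250/500 nM); Tris pH 8.0, 300 mM NaCl, 0.05% BSA, 0.02% Tween 20; GSH donor/Ni acceptor beads; 1 h 37 °C dark; AlphaScreen readout.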
PINK1 modulator – modulators of PINK1 expression; PINK1 immunofluorescence, high-content cytometry, 24 h; Potency, µM (highest dose often 76.6 µM), for inactives: at the top dose activation (PINK1 increase), actives largely listed as activators; 410,000 tested, 0.2% active; active = well fitted activation curve with a large enough effect; inconclusive = small, poorly fitted or top-dose-only effect; inactive = flat fitted curve, though single readings scatter; cell line not stated here;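 note: potency is the fitted concentration of half-maximal effect; % of control where 0% means no effect; nearly all actives have a fitted effect of over 65% in size; a mitochondrial uncoupler was the plate control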
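Measures PINK1 amount and localization on or inside mitochondria by immunofluorescence. Stable cells get compounds at 5 concentrations for 24 hours before fixation and staining; CCCP controls included.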
An asterisk follows results filed as active; ? = inconclusive; · = no result given; & = joins results of further samples; [ ] = dose if it differs, or a comment.

Molecule	CtBP-E1A inh	TRPML1 agonist	Six1-Eya2 inh	D2 agonist	TRPML1 inh	PINK1 modulator
O=C(NCC(=O)N(CC1CCCO1)C1(C(=O)NC2CCCCC2)CCCCC1)c1ccccc1 (centres undefined)	2	-0.1	1	-0.9	-5	2.0%
Nc1ccn([C@@H]2O[C@H](CNCC3=CCOc4ccc(O)cc43)[C@@H](O)[C@H]2O)c(=O)n1	4	-0.2	1	4.8	2	-0.2%
CSCC[C@H](NC(=O)C1CCN(S(=O)(=O)c2ccccc2)CC1)C(=O)NC1CC1	7	-0.3	5	-7.2	-9	-0.6%
CCOc1ccc(CNC(=O)c2ccc(NC(=O)c3nsc4ccccc34)cc2)cc1	·	3.4	·	·	30	1.4%
Cc1ccc(C)c(OCc2cc(C(=O)NC3CCOC(C)(C)C3)no2)c1 (centres undefined)	-11	1.1	-1	-5.0	-27	1.4%
Cc1csc2ncnc(NC3CCN(Cc4ccccc4)CC3)c12	0	0.9	17	-1.4	-16	-1.9%
O=C(Cc1ccccc1F)N1CCC(c2nc3c(nnn3Cc3cccc(Cl)c3)c(=O)[nH]2)CC1	·	2.1	·	·	-23	-0.5%
Cc1ccc(N2C(=O)Nc3ccccc3C2(O)C(=O)N2CCN(c3ccccn3)CC2)cc1C (centres undefined)	4	-0.6	0	-5.0	35	4.0%
O=C(Cn1nnc2ccccc2c1=O)N[C@@H](Cc1ccccc1)C(=O)O	-4	0.2	3	-6.2	14	1.4%
CC1(c2cccc(N)c2)OCCO1	-1	1.0	2	-6.0	14	1.4%
CCOCCCNC(=O)c1cccs1	4	-0.1	4	-3.2	13	-1.2%
Cc1cc(-c2ccc(S(=O)(=O)N3CCc4ccccc4C3)s2)on1	-3	·	-11	-0.8	·	4.3%
CC(C)COc1ccc(C(=O)NC(CC(C)C)C(=O)O)cc1 (centres undefined)	9	-0.5	9	-1.6	4	-2.2%
COC(=O)c1ccc(C#Cc2ccccc2)o1	11	0.5	5	-7.1	22	2.4%
Cc1n[nH]c(C)c1CCC(=O)N/N=C/c1cccs1	1	0.3	6	3.5	6	0.4%

Structures listed so far containing two or more sulfur atoms (two):
Molecule	CtBP-E1A inh	TRPML1 agonist	Six1-Eya2 inh	D2 agonist	TRPML1 inh	PINK1 modulator
CSCC[C@H](NC(=O)C1CCN(S(=O)(=O)c2ccccc2)CC1)C(=O)NC1CC1	7	-0.3	5	-7.2	-9	-0.6%
Cc1cc(-c2ccc(S(=O)(=O)N3CCc4ccccc4C3)s2)on1	-3	·	-11	-0.8	·	4.3%

(list continues)
Molecule	CtBP-E1A inh	TRPML1 agonist	Six1-Eya2 inh	D2 agonist	TRPML1 inh	PINK1 modulator
Nc1nnc(SCC(=O)Nc2cc(S(=O)(=O)N3CCOCC3)ccc2Cl)s1	0	-0.6	3	0.4	-10	0.8%
O=C(NCc1ccncc1)c1ccccc1Nc1ccc(SC(F)F)cc1	-1	1.9	-7	-4.4	2	3.2%
CN(C)S(=O)(=O)c1cc(NC(=O)COC(=O)C2COc3ccccc3O2)ccc1Cl (centres undefined)	·	1.9	2	-5.2	17	-1.2%
CCCCOC(=O)Nc1nnc(CC)s1	2	0.4	7	1.3	-11	-0.6%[38.3 µM]
COC(=O)c1cnn(-c2ccc(Cl)cc2)c1/C=N/NC(N)=S	-1	-0.1	4	2.1	-11	-0.4%
CC1(C)NC(=O)N(CC(O)CN2CCCCC2)C1=O (centres undefined)	1	-0.9	-2	-2.1	8	0.1%
N#Cc1cc2cc3c(cc2nc1Cl)OCCO3	-7	0.3	-1	-0.3	1	2.3%
Cc1cccc(CS(=O)(=O)c2ncc(Cl)c(C(=O)NCc3ccccc3)n2)c1	·	-0.1&-0.1	-5	-8.8	6&-4	1.1%&1.1%
c1ccc(N2CCCCC2)c(NC2=NCCC2)c1	-2	-0.1	5	-0.5	-5	-0.2%
Cc1cc(=O)n2c(-c3ccccc3C)n[nH]c2n1	4	1.4	8	-1.4	34	2.1%
Cc1cccc(NC(=O)CSCC(=O)NCc2cccc(C(F)(F)F)c2)c1	-2	0.0	0	0.8	-3	0.0%
Cc1cc(-c2nc(-c3ccncc3)no2)ccc1[N+](=O)[O-]	4	-1.8	-3	-3.0	41	-2.1%
CCOc1ccc(CN2CCC(Cc3ccccc3)CC2)cc1	·	·	3	1.3	·	7.8%
CCCCN1C(C)=CC(=C2C(=O)c3ccccc3C2=O)C=C1C	0	-0.2	3	-2.0	3	6.6%
CCc1ccccc1NC(=O)c1cnn2c(C(F)(F)F)cc(-c3ccc(OC)c(OC)c3)nc12	·	2.1	·	·	3	-0.2%
Cc1ccc2c(c1)c1c3n2CCCN(Cc2ccccc2)C3CCC1 (centres undefined)	3	-0.3	-3	-3.0	-17	?
CCCCN(CC)CCNC(=O)c1cc2c(C)nc3ccccc3c2o1	-1	0.1	-16	6.0	19	-0.5%
Cc1ccccc1CSCCC(=O)NCCC1=CCCCC1	2	0.5	-22	-0.8	3	6.4%
NS(=O)(=O)c1ccc(NC(=S)N2CCN(C(=O)C3CCCO3)CC2)cc1 (centres undefined)	4	-0.1	10	-2.4	23	-0.9%
CC(C)c1nnc(NC(=O)CCC(=O)N2CCN(c3ccccn3)CC2)s1	8	-0.2	0	6.3	-8	-1.8%[38.3 µM]
O=C1c2ccccc2NC(c2cn[nH]c2-c2ccccc2)N1O (centres undefined)	-8	2.4	2	-2.7	-58*	1.0%
Cc1ccc(CNc2nc3ccc(Cl)cc3n3cnnc23)cc1	·	1.9	·	·	19	-0.6%
CC(C)CC(NC(=O)C(Cc1ccc(OCc2ccccc2)cc1)NC(=O)OC(C)(C)C)C(N)=O (centres undefined)	3	-0.9	4	-4.5	30	0.6%
Cc1cc(NC(=O)COC(=O)c2ccc(C)c(C)c2)no1	-2	-0.5	-1	0.5	1	0.6%
CCOc1ccc(/C=C2\SC(=S)NC2=O)cc1OC	?	1.6	-16	6.7	15	-1.7%
O=C1COc2ccc(S(=O)(=O)N3CCN(c4ccccc4F)CC3)cc2N1	-5	-1.4	-2	-1.7	-14	-0.6%
CCOC(=O)Cn1c(C)nc2ccccc21	9	0.6	10	1.1	4	0.7%
OCCn1c(-c2ccc3c(c2)OCO3)csc1=Nc1ccccc1	-24	-0.6	?	-1.1	9	0.2%
COc1ccc(Cl)c2sc(NC(=O)c3ccc(S(=O)(=O)N4CCOCC4)cc3)nc12	·	0.2	·	·	-5	-5.9%
c1cnc(N2CCN(c3cnccn3)CC2)nc1	7	-0.1	10	-2.1	9	-1.0%

TRPML1 inh: hit marks shown above
molecule	CtBP-E1A inh	Six1-Eya2 inh	D2 agonist	TRPML1 inh	PINK1 modulator
O=C1c2ccccc2NC(c2cn[nH]c2-c2ccccc2)N1O (centres undefined)	-8	2	-2.7	-58*	1.0%

The list continues:
Molecule	CtBP-E1A inh	TRPML1 agonist	Six1-Eya2 inh	D2 agonist	TRPML1 inh	PINK1 modulator
CN(C(=O)CSc1nc(-c2ccccc2)c(-c2ccccc2)o1)C1CCS(=O)(=O)C1 (centres undefined)	1	1.5	-12	-6.7	6	3.4%
COc1ccc([C@H]2[C@H](C(=O)C(C)(C)C)N3N=Cc4ccccc4C3[C@]23N=C(c2ccccc2)OC3=O)cc1 (some centres undefined)	-14	-0.7	-19	5.7	4	0.4%[38.3 µM]
COc1ccc(CCN(C)C(=O)C2CC(=O)N(Cc3ccc(C)cc3)C2)cc1OC (centres undefined)	-2	0.3	-2	-4.4	-9	-0.5%
O=C(O)c1ccc(NC2=Nc3cccc4cccc2c34)cc1	-20	·	3	-0.7	·	-1.0%
COCCNC(=O)c1ccc(NS(C)(=O)=O)cc1	-13	-0.1	-4	-3.4	-28	·
O=C(NCc1cn2ccccc2n1)c1ccco1	5	-0.1	7	-6.0	-2	-1.5%
Cc1ccc(OCC(=O)Nc2ccc3nc(Nc4cccc(Cl)c4)cc(C)c3c2)cc1	·	-0.6	·	·	-10	0.3%
Cn1c(=O)cc(N)n(Cc2ccccc2)c1=O	4	0.6	1	-4.0	1	0.7%
CC(=O)NCCNc1nc2cc(-c3ccccc3CO)sc2c(=O)n1C	-5	-0.6	-11	-7.4	·	2.3%
CCN(CC)S(=O)(=O)c1cc(C(=O)Nc2cc(S(=O)(=O)N3CCOCC3)ccc2N2CCCC2)ccc1F	1	0.7	-10	-1.4	15	5.1%
O=C(O)c1cc(-c2ccc(N3CCOCC3)cc2)nn1-c1ccc(F)cc1	-12	2.1	1	-2.0	6	-0.4%
CCOC(=O)N1CCC(NC(=O)CCc2c(C)nc3nc(C)nn3c2C)CC1	-3	0.4	-1	-1.9	-17	2.8%
CCCCNC(=O)CC1NCCNC1=O (centres undefined)	0	0.7	1	-10	-6	0.4%
O=C1COc2ccc(C(=O)COC(=O)Cn3cnc4ccccc43)cc2N1	-8	-0.3	-1	2.2	13	-1.4%
CCOC(=O)C1CC(c2ccc(Cl)cc2)=NNC1=O (centres undefined)	-21	-0.5	-11	-0.3	11	-1.2%
CSc1ccc(CN(C)C(=O)C2CCN(C(=O)Nc3ccccc3)CC2)cc1	-2	1.9	-4	-0.2	-6	-0.7%
CCn1cc(CNC(=O)c2cc(Cl)ccc2OC)c(C)n1	3	0.1	-1	-1.6	5	0.5%
Clc1ccc(Cn2nnc(-c3ccc(CN4CCOCC4)cc3)n2)cc1	-13	0.2	-4	-2.0	77	1.6%
Cc1nnc(SCC(=O)NCc2ccc(Cl)cc2)[nH]c1=O	5	-0.1	31	-3.5	-16	-0.5%
CCN1CCN(CC(=O)c2ccc(C)cc2)CC1	5	·	-3	-1.2	·	-0.7%
Cc1ccc(/C=N/N(Cc2ccccc2)c2ccccc2)o1	1	1.7	-12	-1.7	-3	4.2%
C=CCNC(=O)/C(=C\C=C\c1ccccc1)NC(=O)c1ccccc1Cl	11	4.6	-9	15	8	0.7%
